Source: PubChem BioAssay (PCMD)
RmlCD inh mix = RmlC and RmlD coupled enzyme inhibitors, primary screen, biochemical, 384-well, compound mixtures, retest; inhibition, % at 5.5 µM; 110,000 compounds, 0.39% hits; RmlC/RmlD coupled enzyme inhibition, 384-well mixture HTS; in the data active = inhibition above about 30%, passing the limit was not always enough; only retested compounds are shown here; note: strong numbers were not always called active
RmlCD inh mix retest = also measured in RmlCD inh mix; calls as there; inhibition, %; measured here: mean retest inhibition;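 single compounds in two wells; values far above 100% likely come from compound fluorescence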
* hit, by the source's call; i = inactive; nt = no result given; + = active, no number. These rows are one share of the data; the hit share may differ from the screen's.

SMILES	RmlCD inh mix	RmlCD inh mix retest
COC(=O)c1cccc(N2C(=O)c3ccccc3S2(=O)=O)c1	79	-1
CC(C)(C)C(=O)[C@@H]1[C@@H]2C(=O)N(Cc3ccccc3)C(=O)[C@@H]2[C@H]2c3ccccc3C=CN12	93	-14
COc1ccc(C2c3sc(=O)[nH]c3SC3C4CCC(C4)C23)cc1OC (stereo not given)	56	6
COc1cccc(NC(=O)C2CCCN(S(=O)(=O)c3ccc(-n4cnnn4)cc3)C2)c1 (stereo not given)	i	-9
Cc1cccc(-n2ncc3c(N(CCO)CCO)ncnc32)c1	46	-4
C=CCNC(=O)c1c(CSc2ccc(Cl)cc2)noc1C(=O)NCCC	56	-3
CCN(CC)Cc1c(O)ccc2c(C)c(CC(=O)OC)c(=O)oc12	110*	121*
O=C(NC(NC(=O)c1ccccc1)c1ccccc1)c1ccccc1	95	-3
CCOc1cc(C(=O)Nc2ccc(N3CCN(S(C)(=O)=O)CC3)cc2)cc(OCC)c1OCC	146	-7
Cc1ccc(S(=O)(=O)N2CCN(c3ncnc4c3cnn4-c3ccccc3)CC2)cc1	74	-8
Cc1ccccc1-c1c(C)oc2cc(O)ccc2c1=O	38*	76*
CCN(CC)c1nc(Nc2ccccc2)nc(Oc2ccc(C(=O)OC)cc2)n1	42	-9
Cc1ccc2nc(NC(=O)C3CCCN(S(=O)(=O)c4cnc[nH]4)C3)sc2c1 (stereo not given)	i	9
CCN1CCN(c2nc3ccccc3s2)CC1	67	-3
O=C(NCCc1ccc(Cl)cc1)c1cccnc1	107	-5
C=CCn1c(-c2ccc(OC)cc2)nc2nc3ccccc3nc21	58	-18
O=c1c2ccccc2[se]n1-c1ccccc1	57*	45*
CN(C)c1ccnc(NCc2ccccc2)c1C#N	47	-2
COc1ccc(S(=O)(=O)NC(C)C(=O)Nc2ccccc2C(F)(F)F)cc1 (stereo not given)	70	-6
Cc1ccc(-c2nc3ccccn3c2NCc2ccc3c(c2)OCO3)cc1	102	-10
COc1ccc2cc3cc(C(=O)NCc4ccco4)oc3nc2c1	136	-11
O=C(CN1CCCC1)Nc1ccc(-c2nc3cc(NC(=O)CN4CCCC4)ccc3o2)cc1	46*	77*
CCOc1c2ccoc2nc2c(OC)c(OC)ccc12	57	31
COc1cccc(NC(=O)c2nn(C)cc2Br)c1	32	9
CCOC(=O)Nc1nnc(-c2ccc(OC)c(OC)c2)s1	31*	31*
COCCNC(=O)CSc1ncnc2sccc12	34	-6
COc1cc2[nH]c(=O)n3nc(-c4ccccc4)nc3c2cc1OC	41	22
O=C(c1cccs1)c1cn(Cc2ccccc2Cl)c2ccccc12	30	-15
CSc1nc(-c2ccccc2)nn1C(=O)c1ccc(Cl)cc1	38	-9
CCOc1cccc(/C(O)=C2/C(=O)C(=O)N(CCOC)C2c2ccncc2)c1 (stereo not given)	32	5
CC1CN(C2CCN(S(=O)(=O)Cc3ccccc3)CC2)CC(C)O1 (stereo not given)	40	4
Cc1ccc2c(c1)c1c(n2CC2COC(C)(C)O2)C(=O)CCC1 (stereo not given)	37	-11
O=C1c2ccccc2C(=O)N1Cc1nc2ccccc2c(=O)n1-c1ccccn1	69	-9
Cc1cn2nc(N)c3ccccc3c2n1	40	7
COc1ccc(CNC(=O)c2ccc(-c3ccccc3)cc2)cc1	38	9
O=C(NCC1CCCO1)c1cc(-c2ccco2)nc2ccccc12 (stereo not given)	53*	63*
COc1ccc(C#Cc2c(-c3ccc(OC)cc3)oc3ccc(-c4ccc(OC)cc4)cc23)cc1	+	nt
CC(C)(C)n1ncc2c(=O)n(CC(=O)NCCc3ccccc3)cnc21	i	-15
O=C(C1CC1c1ccccc1)N1CCOCC1 (stereo not given)	165	-11
O=S(=O)(c1cccc(-c2cn3cccnc3n2)c1)N1CCOCC1	67*	120*
CCNc1nc(C)cc(COC)c1C#N	65	14
COc1ccc(/C=N/c2c(-c3ccco3)nc3ccccn23)cc1OC	53	34
COCCNC(=O)Cn1nc(-c2ccccc2OC)ccc1=O	30	-17
COc1ccc(NC(=O)c2cc(CN3C(=O)c4ccccc4C3=O)ccc2OC)cn1	80	-12
CC(=O)c1ccc2c3c(cccc13)C(=O)N(c1c(C)nn(C)c1C)C2=O	171	-17

Overlap with the part before: 3 compounds, then new ones.
SMILES	RmlCD inh mix	RmlCD inh mix retest
COCCNC(=O)Cn1nc(-c2ccccc2OC)ccc1=O	30	-17
COc1ccc(NC(=O)c2cc(CN3C(=O)c4ccccc4C3=O)ccc2OC)cn1	80	-12
CC(=O)c1ccc2c3c(cccc13)C(=O)N(c1c(C)nn(C)c1C)C2=O	171	-17
CC(C)(C)c1ccc(-c2ccc3c(c2)S(=O)(=O)c2ccccc2C3=O)cc1	50	4
CC(C)(C)OC(=O)NCCc1nnc(SCc2ccc(Cl)cc2Cl)o1	113	-13
CCC(C)C(=O)Nc1ncc2c(n1)CC(c1cccs1)CC2=O (stereo not given)	48	-14
CC(=O)Oc1ccc2c(=O)c(-c3ccccc3)c(C)oc2c1	80*	105*
CCC1(C)Cc2ccccc2-c2nc(NCCCO)n(-c3ccccc3)c(=O)c21 (stereo not given)	44	8
Cc1ccc(-c2csc3ncnc(OCC(=O)NC(=O)NCc4ccco4)c23)cc1	38	-11
COc1cccc(C(=O)Nc2cccc(OC(C)=O)c2)c1	31	-6
N#CCSc1ccsc1C(=O)Nc1ccc(F)cc1	42	3
CC(C)OC(=O)c1c(N)n(Cc2ccco2)c2nc3ccccc3nc12	34	-57
O=C(Nc1cccc(-c2cn3cccnc3n2)c1)c1ccco1	33	21
Cc1nnc2sc(-c3ccc(-c4ccc(Cl)c(C(F)(F)F)c4)o3)nn12	32	-464
O=c1[nH][nH]c(=O)c2cc(N3CCCC3)ccc12	38	5
COC(=O)CCC(=O)OC1(C)C(=O)C=C2C=C3CCCN3C=C2C1=O (stereo not given)	35	-1
CS(=O)(=O)N(CC(=O)N1CCN(c2ccc(F)cc2)CC1)c1cccc(Cl)c1	36	-4
CCOC(=O)c1[nH]c2cc(OC)c(OC)cc2c1N	55	4
Cc1cc(C)n(C(=O)CNC(=O)c2ccc3c(c2)OCCO3)n1	59	2
CCCCN(CCCC)c1nc2ccccc2nc1C(C#N)C(=O)NCCCOC (stereo not given)	45	12
CNC(=O)c1nc(C)n(-c2cc(Cl)cc(Cl)c2)n1	68	5
c1coc(-c2nnc3sc(-c4cccs4)nn23)c1	30	-10
CN(C(=O)c1ccc(C#N)cc1)c1nnc(-c2ccccn2)s1	40*	61*
Cc1cc(NC(=O)CNC(=O)C2CCCCC2)no1	145	-1
CC(Sc1nnc(Cc2cccs2)n1C1CCCCC1)C(=O)N1CCc2ccccc21 (stereo not given)	30	4
CC1=C(C(=O)OC(C)C)C(c2ccc(Br)s2)NC(=O)N1C (stereo not given)	71	-7
CCCCCCc1cc2cc(-c3nnc(-c4ccccc4O)o3)c(=O)oc2cc1O	162*	nt
CN1CCN(C2=C(Cl)C(=O)N(CCc3ccccc3)C2=O)CC1	36	-4
O=S(=O)(NCCc1ccncc1)c1cc(Br)ccc1F	79	-6
O=C(CCS(=O)(=O)Cc1ccccc1)N1CCN(c2ccccc2)CC1	64	1
O=C(Cc1ccccc1)NCC1COc2ccccc2O1 (stereo not given)	31	-15
O=C(c1ccc2nc3ccccc3c(=O)n2c1)N1CCN(Cc2ccc3c(c2)OCO3)CC1	31*	55*
CCC(C)(C)c1ccc(Oc2ccc(NC(=O)COC(=O)C3=COCCO3)cc2)cc1	36	1

Of the compounds above, these contain fluorine:
SMILES	RmlCD inh mix	RmlCD inh mix retest
COc1ccc(S(=O)(=O)NC(C)C(=O)Nc2ccccc2C(F)(F)F)cc1 (stereo not given)	70	-6
N#CCSc1ccsc1C(=O)Nc1ccc(F)cc1	42	3
Cc1nnc2sc(-c3ccc(-c4ccc(Cl)c(C(F)(F)F)c4)o3)nn12	32	-464
CS(=O)(=O)N(CC(=O)N1CCN(c2ccc(F)cc2)CC1)c1cccc(Cl)c1	36	-4
O=S(=O)(NCCc1ccncc1)c1cc(Br)ccc1F	79	-6

In the list so far, these contain a furan ring, fused or not:
SMILES	RmlCD inh mix	RmlCD inh mix retest
COc1ccc2cc3cc(C(=O)NCc4ccco4)oc3nc2c1	136	-11
CCOc1c2ccoc2nc2c(OC)c(OC)ccc12	57	31
O=C(NCC1CCCO1)c1cc(-c2ccco2)nc2ccccc12 (stereo not given)	53*	63*
COc1ccc(C#Cc2c(-c3ccc(OC)cc3)oc3ccc(-c4ccc(OC)cc4)cc23)cc1	+	nt
COc1ccc(/C=N/c2c(-c3ccco3)nc3ccccn23)cc1OC	53	34
Cc1ccc(-c2csc3ncnc(OCC(=O)NC(=O)NCc4ccco4)c23)cc1	38	-11
CC(C)OC(=O)c1c(N)n(Cc2ccco2)c2nc3ccccc3nc12	34	-57
O=C(Nc1cccc(-c2cn3cccnc3n2)c1)c1ccco1	33	21
Cc1nnc2sc(-c3ccc(-c4ccc(Cl)c(C(F)(F)F)c4)o3)nn12	32	-464
c1coc(-c2nnc3sc(-c4cccs4)nn23)c1	30	-10

Later entries.
SMILES	RmlCD inh mix	RmlCD inh mix retest
CC(C)C(NC(=O)c1ccccc1)C(=O)NCc1ccccn1 (stereo not given)	31	-6
COc1ccc(OC)c(C(c2nnnn2C(C)(C)C)N2CCc3ccccc3C2)c1 (stereo not given)	54	-10
COc1ccc(N(CC(=O)NCCSc2ccccn2)S(C)(=O)=O)cc1	94	-11
CCOC(=O)N1CCN(c2nc(C(F)(F)F)nc3c(C)cc(C)cc23)CC1	52	-9
C/C(=N\O)c1c(C)c2ccccc2n1C	55	2
Cc1ccc(N2CCCn3c2cc(C)c(C#N)c3=O)cc1C	33	14
N#Cc1c(N)oc(-c2ccccc2)c1-c1ccccc1	74	-6
CCOc1ccc(N(CC(=O)NC2CCCC2)C(=O)CCC(=O)Nc2ccccn2)cc1	32	1
Cc1nnc(Sc2c(N)n(C)c(=O)[nH]c2=O)s1	56	2
Cc1ccc(C(=O)NC2CC3CCC(C2)N3Cc2ccco2)cc1 (stereo not given)	37	-13
CCN1CNC(=S)N(c2cc(C)ccc2C)C1	105	-9
COc1cc(C2=NOC(C(=O)NCc3cccs3)C2)cc(OC)c1OC (stereo not given)	40	7
COc1cc(CCC(=O)N2CCN(S(=O)(=O)c3ccc(C)c(C)c3)CC2)cc(OC)c1OC	41	-10
CC(=O)c1ccc(S(=O)c2ccccc2)cc1 (stereo not given)	106	-2
CCCc1cc(NCC2CCCO2)n2c(nc3ccccc32)c1C#N (stereo not given)	102*	88*
CCOC(=O)N1CCN(C(=O)CCCn2c(=S)[nH]c3ccc(Br)cc3c2=O)CC1	30	-2
C=CCOc1cccc(C2C(C(=O)c3ccc(C)o3)=C(O)C(=O)N2CCN(C)C)c1 (stereo not given)	36	-11
O=C(O)CCCCC1CCSS1 (stereo not given)	73*	66*
COCCNC(=O)c1cc2c(=O)n3cccc(C)c3nc2n(Cc2ccncc2)c1=N	40*	66*
C=CCn1c(COc2ccccc2F)nnc1SCC(=O)N1CC(=O)Nc2ccccc21	128	-13
O=C(Oc1cccc(NC(=O)c2ccco2)c1)c1cccc(S(=O)(=O)N2CCCCC2)c1	96	-12
Cc1nn(-c2ccc(Cl)cc2)c(N)c1C(O)(CSc1nccn1C)C(F)(F)F (stereo not given)	79	-4
O=C(NC1CCCCC1)C(c1ccncc1)N(C(=O)Cn1nnc(-c2cccs2)n1)C1CCCC1 (stereo not given)	187	1
COCC(=O)Nc1ccc(-c2cn3cccnc3n2)cc1	96*	153*
CCC(=O)N1CCc2cc(S(=O)(=O)NCCN3CCC(C)CC3)ccc21	44	5
Cc1nnc2sc(-c3ccncc3)nn12	30	-17
CCCCNc1nc2c(c(=O)n(C)c(=O)n2C)n1CCC	70	-10
COc1cccc(C(=O)CN2C3=NCCCN3c3ccccc32)c1	30	4
CN(C)S(=O)(=O)N(Cc1ccc(Br)cc1)c1ccccc1	34	4
Cc1cc(NC(=O)c2cnn3c(C(F)(F)F)cc(-c4ccc(Br)cc4)nc23)no1	42	7
O=C(Cn1ccc(C(F)(F)F)n1)Nc1ccc(S(=O)(=O)NCc2ccco2)cc1	37	-1
COC(=O)[C@@H](NC(=O)Nc1cccc(OC)c1)C(C)C	36	1
CCOc1ccccc1C(C(=O)NC1CCCC1)N(Cc1ccco1)C(=O)CNC(=O)c1ccco1 (stereo not given)	146	-14
CCC(=O)Nc1ccccc1C(=O)OCC(=O)c1cccc2ccccc12	156	1
CC(C)NC[C@@H](O)c1ccc(O)c(O)c1	97	-12
CCCCCCOc1ccc(/C(N)=N/O)cc1	94	-10
CC1CC2(CCCCC2)Nc2ccc3ccccc3c21 (stereo not given)	166	21
c1cncc(-c2nnc(-c3cccs3)o2)c1	39	8
CCOC(=O)c1cnc(-n2nc(C)cc2C)nc1NCCO	104	-8
CCOC(=O)C1CCN(C(=O)CC(C)c2ccccc2)CC1 (stereo not given)	108	-6
COc1cccc(OC)c1C(=O)N1CCN(Cc2ccncc2)CC1	32	-12
COc1ccc(CNC(=O)CN(CC2CCCO2)C(=O)CNS(=O)(=O)c2ccc(C)cc2)cc1 (stereo not given)	36	-12
Cc1ccc(-n2c(O)c(C=Nc3ccc4c(c3)OCO4)c3ccccc3c2=O)cc1C	37	49
COc1ccc2[nH]c(=O)c(C(c3nnnn3CC3CCCO3)N3CCc4ccccc4C3)cc2c1 (stereo not given)	i	-3
Cc1ccc(S(=O)(=O)Cc2ccc(C(=O)N3CCN(c4cc(C)ccc4C)CC3)o2)cc1	125	-15
Cc1nn2c3c(cnc2c1-c1ccc(Cl)cc1)C(=O)CC(c1ccco1)C3 (stereo not given)	77	4
O=C(Cc1ccc(S(=O)(=O)N2CCOCC2)s1)NCC1CCCCC1	56	3
Cc1ccccc1S(=O)(=O)Nc1nc2ccccc2nc1N1CCOCC1	50	4
NC(=O)CSP(=O)(c1ccccc1)c1ccccc1	35	1
